PAD4 FP inh – blocks human protein arginine deiminase 4; Q9UM07; recombinant PAD4, RCA probe fluorescence polarization; inhibition, % at 6.36 µM; actives 0.41% (n = 330,000); AID 485272;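 active = percent inhibition above a cutoff equal to the mean of all tested compounds plus 3 SD, cut at about 15% in these data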;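 also: 0% = PAD4 with RCA probe and DMSO and 100% = probe without PAD4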
PAFAH1B2 inh – PAFAH1B2 (human) inhibition; recombinant PAFAH1B2, FP-rhodamine activity probe, fluorescence polarization; inhibition, % at 3.39 µM; actives 1.2% (n = 340,000); AID 492953;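 active = inhibition above the mean of all tested compounds plus 3 SD, cut at about 24% in these data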;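 also: 0% = enzyme with DMSO and 100% = wells lacking PAFAH1B2; many of its hits are not listed in these tables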
PAFAH1B3 inh – PAFAH1B3 (human) inhibition. inhibition, % at 3.39 µM. actives 0.28% (n = 340,000). recombinant PAFAH1B3, FP-rhodamine probe, fluorescence polarization. Q15102;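 active = inhibition above the screen-wide average of all tested compounds plus 3 SD, cut at about 25% in these data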;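 also: 0% = enzyme with DMSO only and 100% = wells lacking PAFAH1B3 protein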
Target sequence (Q15102 whole entry, looked up): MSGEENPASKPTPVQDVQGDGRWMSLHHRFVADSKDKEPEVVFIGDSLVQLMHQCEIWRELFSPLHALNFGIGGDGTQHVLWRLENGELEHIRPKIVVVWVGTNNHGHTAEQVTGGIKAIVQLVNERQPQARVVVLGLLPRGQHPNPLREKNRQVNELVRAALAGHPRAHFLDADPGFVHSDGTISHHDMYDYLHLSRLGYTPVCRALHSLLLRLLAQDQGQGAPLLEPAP
PAFAH2 FP inh – inhibitors of human PAFAH2. Q99487. recombinant PAFAH2, FP-rhodamine activity probe, fluorescence polarization. inhibition, % at 3.39 µM. actives 0.99% (n = 340,000);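 active = inhibition above the mean over all tested compounds plus 3 SD, cut at about 30% in these data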;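 also: inhibitors block probe labeling of enzyme so polarization drops; 0% = enzyme with DMSO and 100% = wells lacking PAFAH2 protein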
pPAFAH FP inh – pPAFAH (human) enzyme inhibition | AID 463082 | Q13093 | inhibition, % at 3.39 µM | actives 1.5% (n = 330,000) | recombinant pPAFAH, FP-rhodamine probe fluorescence polarization;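 active = inhibition above the mean inhibition across the screen plus 3 SD, cut at about 25% in these data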;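 also: inhibitors block binding of the rhodamine activity-based probe so polarization drops; 0% = enzyme with DMSO and 100% = wells lacking pPAFAH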
LYPLA2 inh – counter-screen for PME1 inhibitors: inhibitors of human LYPLA2. O95372. recombinant LYPLA2, FP-Rh probe fluorescence polarization. inhibition, % at 5.9 µM. actives 0.38% (n = 320,000);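 active = inhibition above the screen-wide mean plus 3 SD, limit set per campaign, cut at about 26% in these data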;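 also: 0% = LYPLA2 with DMSO and 100% = wells lacking LYPLA2 enzyme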
Target sequence (O95372 whole entry, looked up): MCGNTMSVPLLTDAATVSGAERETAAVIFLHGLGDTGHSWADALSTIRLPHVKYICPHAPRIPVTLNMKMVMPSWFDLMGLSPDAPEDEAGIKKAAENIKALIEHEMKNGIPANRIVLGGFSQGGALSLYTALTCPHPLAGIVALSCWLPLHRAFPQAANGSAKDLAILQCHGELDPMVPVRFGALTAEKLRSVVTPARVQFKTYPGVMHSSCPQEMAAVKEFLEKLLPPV
LYPLA1 counter – counter-screen for PME1 inhibitors: inhibitors of human LYPLA1. O75608. recombinant LYPLA1, FP-Rh probe fluorescence polarization. inhibition, % at 5.9 µM. actives 0.16% (n = 320,000). AID 2174;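 active = inhibition above the mean of all tested compounds plus 3 SD, set per campaign, cut at about 14% in these data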;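 also: inhibitors block serine hydrolase probe labeling of LYPLA1 so polarization falls; 0% = enzyme with DMSO and 100% = wells lacking LYPLA1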
Target sequence (O75608 whole entry, looked up): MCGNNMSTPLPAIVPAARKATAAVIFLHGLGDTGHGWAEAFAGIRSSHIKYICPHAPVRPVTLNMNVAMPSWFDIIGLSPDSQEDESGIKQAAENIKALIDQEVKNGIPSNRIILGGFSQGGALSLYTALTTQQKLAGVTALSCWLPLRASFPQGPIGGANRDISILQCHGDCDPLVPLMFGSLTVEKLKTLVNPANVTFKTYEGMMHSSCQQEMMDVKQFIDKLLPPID
GSTO1 inh – GSTO1 inhibition, counter-screen for RBBP9 inhibitors; P78417; recombinant GSTO1, activity-based probe fluorescence polarization; inhibition, % at 5.96 µM; actives 1.1% (n = 300,000);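 active = inhibition above the campaign mean inhibition plus 3 SD, cut at about 35% in these data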;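 also: 0% = GSTO1-1 with DMSO and 100% = wells lacking GSTO1-1 enzyme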
Target sequence (P78417 whole entry, looked up): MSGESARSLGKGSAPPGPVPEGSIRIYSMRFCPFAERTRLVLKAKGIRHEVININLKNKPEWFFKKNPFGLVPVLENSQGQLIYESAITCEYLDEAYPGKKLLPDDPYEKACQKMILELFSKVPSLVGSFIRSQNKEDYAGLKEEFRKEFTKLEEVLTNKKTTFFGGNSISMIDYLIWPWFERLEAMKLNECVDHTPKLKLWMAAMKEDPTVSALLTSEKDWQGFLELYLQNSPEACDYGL
Numbers without * were called inactive; nt = no result given. Not all compounds are listed; the hit share may differ from the screen's.

molecule	PAD4 FP inh	PAFAH1B2 inh	PAFAH1B3 inh	PAFAH2 FP inh	pPAFAH FP inh	LYPLA2 inh	LYPLA1 counter	GSTO1 inh
O=C(COc1ncnc2sccc12)N1CCN(S(=O)(=O)c2ccc(Cl)cc2)CC1	2	24	6	-4	0	-3	-1	8
COc1ccc(OC(=O)c2cccc(S(=O)(=O)N3CC(C)OC(C)C3)c2)cc1 (stereo unspecified)	1	7	-3	3	3	2	0	nt
COc1ccc(-c2cc(C(=O)NCCCn3ccnc3)no2)cc1	2	0	0	2	3	-3	0	1
CNc1c(NS(=O)(=O)c2cc(Cl)ccc2OC)c(=O)oc2ccccc12	3	2	-2	-2	-1	2	-13	8
CCCCNC(=O)C(=O)NCCCn1ccnc1	0	0	10	-3	7	-2	0	-1
COc1cc(NC(=O)c2ccc(Br)o2)c(C(=O)O)cc1OC	1	12	3	2	1	-7	0	-11
CSc1ccc(/C=N/NC(=O)CNc2ccc3ccccc3c2)cc1	-2	1	9	9	6	-18	-11	-5
CC(=O)Nc1ccc(NC(=O)c2ccccc2Sc2ccc([N+](=O)[O-])cc2Cl)cc1	-4	-1	6	-2	5	-7	-5	0
CSc1cccc(NC(=O)COc2ccccc2)c1	-2	1	-5	-1	0	4	1	7
Cn1c(=O)c(=O)n(C)c2cc(S(=O)(=O)N3CCC(Cc4ccccc4)CC3)ccc21	-1	-1	5	2	-7	-10	2	1
CC1=C(C(N)=O)C(c2cccc(OCc3ccccc3)c2)n2nnnc2N1 (stereo unspecified)	0	5	3	7	-7	-4	0	-7
CCc1ccc(Nc2nnc(SCc3cc(=O)n4ccsc4n3)s2)cc1	1	0	-2	-2	13	11	-4	2
CCn1c2ccccc2c2cc(NC(=O)COC(=O)c3cccc(S(=O)(=O)NC)c3)ccc21	-6	-1	10	-4	14	1	-5	-1
COc1ccc(/C=C/C(=O)c2ccc(NS(=O)(=O)c3ccc(C)cc3)cc2)cc1O	-4	16	11	3	24	-6	-11	-5
Cc1cc(NC(=O)Nc2ccc3c(ccn3C)c2)sn1	-3	-1	6	-21	4	-4	-6	9
Cc1cc(-c2n[nH]c(=S)n2/N=C/c2sccc2C)n[nH]1	3	2	2	1	2	9	4	9
S=c1[nH]nc(-c2ccc(Cl)cc2Cl)n1-c1ccc2c(c1)OCCO2	5	-3	5	0	4	2	2	-2
CC(=O)N1c2ccccc2NC2=C(C(=O)CCC2)C1c1ccco1 (stereo unspecified)	-3	-4	2	7	6	13	-2	23
CCc1cc(=O)oc2c(C)c(OCC(=O)N3CCCc4ccccc43)ccc12	-2	8	0	4	-9	22	-3	-7
COc1ccc(S(=O)(=O)Nc2ccc(-c3ccc(N4CCCC4)nn3)cc2)cc1C	-9	3	3	2	17	-2	-5	3
COC(=O)C1=C(N)N(c2ccccc2C(F)(F)F)C2=C(C(=O)CCC2)C1c1ccc2c(c1)OCO2 (stereo unspecified)	-4	5	6	2	5	-4	-1	1
CC(=O)Oc1ccc2ccccc2c1C(NC(=O)Cc1ccccc1)c1ccccc1Cl (stereo unspecified)	2	-3	1	6	-1	0	-2	-8
COc1ccccc1NS(=O)(=O)c1ccc(-c2cc(C)no2)s1	-6	-3	3	2	-1	-6	0	-15
Nc1c(C(=O)Nc2ccc(Cl)cc2)oc2ccccc12	0	10	-1	-2	-2	6	-1	-5
CCOC(=O)C1=C(C)Nc2nnnn2C1c1cccnc1 (stereo unspecified)	-1	-1	-4	5	-1	11	3	-2
O=C(NCCN1CCOCC1)c1ccc(NS(=O)(=O)c2cccc([N+](=O)[O-])c2)cc1	-4	1	3	-6	-7	-3	0	-1
O=C(CCN1C(=O)C2(OCCO2)c2ccccc21)c1ccccc1	-3	3	-2	-7	2	0	0	2
O=C(Cn1cnc2sc3c(c2c1=O)CCCC3)NCC(=O)Nc1ccc(F)cc1F	1	0	2	-1	-1	2	-5	10
CC(=O)Nc1cccc(OCC(=O)Nc2ccccc2)c1	-3	0	-2	7	-5	-8	-1	-3
O=C(C1CCN(S(=O)(=O)c2cccs2)CC1)N1CCN(c2ccccc2O)CC1	-1	-4	4	-3	1	0	2	nt
CCC(C)c1ccccc1OCCCNC1CCCC1 (stereo unspecified)	-2	1	7	0	-1	-1	-1	13
CCCn1c(N)c(C(=O)CN(C)CC(=O)Nc2c(Cl)cccc2Cl)c(=O)[nH]c1=O	-5	-2	3	-4	-1	-1	-6	nt
CCOc1ccc(CN2CCNC(=O)C2CC(=O)NCCC2=CCCCC2)cc1 (stereo unspecified)	-1	nt	nt	nt	4	9	-2	16
CCc1ccc2oc(-c3cc(N)cc(C)c3O)nc2c1	-8	-1	6	-1	11	-8	-8	17
Cc1ccc(-c2nc(C(=O)NC3CCCCCC3)no2)cc1	0	4	10	3	1	-4	0	4
CCCCSCCCNC(=O)c1cn(CC)c2ccc(S(=O)(=O)N3CCOCC3)cc2c1=O	-5	6	6	-3	11	-8	-10	4
O=C(CNc1ccccc1)N/N=C/c1ccc([N+](=O)[O-])cc1	-5	-6	4	-9	15	0	1	5
Cc1ccc(C)c(S(=O)(=O)N2CCN(C(=O)Cn3[nH]c(=O)c4ccccc4c3=O)CC2)c1	-2	-1	-2	-2	-12	-3	0	-18
O=C1CCCc2ccccc2N1Cc1c(Cl)cccc1Cl	2	9	5	3	2	4	3	0
Cc1ccccc1NC(=O)c1c2c(nc3ccccc13)CCC2	-1	7	12	11	8	-5	-3	-3
Cn1c2ccccc2c(=O)c2cc(C#Cc3ccc(N)cc3)ccc21	-3	7	4	7	19	-5	-6	25
COc1cccc(CC(=O)OCC(=O)NC(C)c2ccc(F)cc2)c1 (stereo unspecified)	-2	6	11	1	2	4	0	nt
O=S(=O)(Nc1cc(Cl)ccc1N1CCCCC1)c1cccs1	-1	13	4	6	9	2	0	-4
Cc1nc(Nc2ccc3c(c2)OCCO3)c2oc3ccccc3c2n1	0	0	-8	6	15	-3	6	-1
CC1CCN(S(=O)(=O)c2cn(CC(=O)Nc3cccc(C#N)c3)cn2)CC1	-1	3	8	-1	5	-2	1	-5
CN(C)c1ccc(S(=O)(=O)N2CCCCC2)cc1NC(=O)CN1C(=O)NC(C)(c2ccccc2)C1=O (stereo unspecified)	0	6	4	2	4	4	0	3
Nc1sc(-c2ccccc2)cc1C(=O)N/N=C/c1ccc(Cl)cc1	-5	nt	nt	nt	9	-12	-20	-1
COc1ccc(S(=O)(=O)Nc2ccccc2C(=O)N2CCCCC2)cc1C	-2	7	8	2	1	-8	-1	-1
CCOc1ccc(C(=O)NCCCn2ccnc2)cc1	3	3	0	3	6	10	5	2
CCN(CC)c1ccc(C(=S)NCc2ccccc2)cc1	1	4	6	-3	8	1	1	14
CC(=O)Nc1ccc(NS(=O)(=O)c2ccc(-c3cnc(C4CC4)o3)cc2)cc1	-2	3	9	4	3	3	0	0
CCc1cc2c(NC(Cc3c[nH]c4ccccc34)C(=O)O)nc(C)nc2s1 (stereo unspecified)	0	23	11	5	0	3	1	-7
CC(NC(=O)C1CCN(S(=O)(=O)c2cccs2)CC1)c1cccc(Cl)c1 (stereo unspecified)	3	6	6	-5	4	4	1	nt
Cc1ccc(CNS(=O)(=O)c2ccc(-c3cnc(C4CC4)o3)cc2)cc1	-5	8	5	2	-5	-4	-3	5
O=C(NNC(=O)c1cc(F)c(F)cc1Cl)c1ccc(NS(=O)(=O)c2cccs2)cc1	-4	4	11	5	1	0	-2	nt
CC1CCCN(C(=O)COC(=O)Cc2c(F)cccc2Cl)C1 (stereo unspecified)	1	8	-2	-5	5	7	2	4
S=c1[nH]c(-c2ccccc2)cn1/N=C/c1ccc(Br)cc1	-1	9	6	1	12	7	-1	-5
CCOc1ccc(NC(=O)CN(C)CC(=O)NC2CCCc3ccccc32)cc1OCC (stereo unspecified)	-1	1	11	-2	5	-1	4	2
COc1ccc(S(=O)(=O)Nc2cc(C(=O)NCCCN3CCOCC3)ccc2N2CCOCC2)cc1	-1	5	12	5	-4	-6	-5	18
CC(=O)Nc1ccc(NC(=O)CN(C)CCC#N)cc1	-3	5	-7	0	9	3	-1	-4

Other compounds
molecule	PAD4 FP inh	PAFAH1B2 inh	PAFAH1B3 inh	PAFAH2 FP inh	pPAFAH FP inh	LYPLA2 inh	LYPLA1 counter	GSTO1 inh
COc1ccc(CN(C)C(=O)c2ccccc2Sc2ccccc2C#N)c(OC)c1	6	1	3	2	3	-3	6	2
CCOC(=O)/C(C#N)=C/c1cn(CCC(=O)O)nc1-c1ccccc1	0	0	4	-1	0	0	-6	9
O=C(NCc1cccc(Cl)c1)C1CCN(S(=O)(=O)c2ccc(F)cc2)CC1	-2	7	9	-2	1	6	-1	6
CC(C)Oc1ccc(S(=O)(=O)N2CCOCC2)cc1NC(=O)Cc1c(F)cccc1Cl	-2	3	4	0	-5	-9	-4	13
N#Cc1ccc(/C=N/NC(=O)c2cc(-c3cccs3)nc3ccccc23)cc1	-33	-2	-9	-21	-20	-47	-30	-10
COc1ccc2c(N)c(C(=O)NN)[nH]c2c1	-13	7	17	6	2	2	0	3
Cc1cc(N2CCOCC2)n2nc(-c3cccc(F)c3)cc2n1	-3	1	-5	-10	-8	0	-4	4

An excerpt from above, limited to PAFAH1B3 inh.
mol	PAFAH1B3 inh
CC(C)Oc1ccc(S(=O)(=O)N2CCOCC2)cc1NC(=O)Cc1c(F)cccc1Cl	4
N#Cc1ccc(/C=N/NC(=O)c2cc(-c3cccs3)nc3ccccc23)cc1	-9

Filtered by structure, the entries above containing a thiophene ring, fused or not.
molecule	PAD4 FP inh	PAFAH1B2 inh	PAFAH1B3 inh	PAFAH2 FP inh	pPAFAH FP inh	LYPLA2 inh	LYPLA1 counter	GSTO1 inh
O=C(COc1ncnc2sccc12)N1CCN(S(=O)(=O)c2ccc(Cl)cc2)CC1	2	24	6	-4	0	-3	-1	8
Cc1cc(-c2n[nH]c(=S)n2/N=C/c2sccc2C)n[nH]1	3	2	2	1	2	9	4	9
COc1ccccc1NS(=O)(=O)c1ccc(-c2cc(C)no2)s1	-6	-3	3	2	-1	-6	0	-15
O=C(Cn1cnc2sc3c(c2c1=O)CCCC3)NCC(=O)Nc1ccc(F)cc1F	1	0	2	-1	-1	2	-5	10
O=C(C1CCN(S(=O)(=O)c2cccs2)CC1)N1CCN(c2ccccc2O)CC1	-1	-4	4	-3	1	0	2	nt
O=S(=O)(Nc1cc(Cl)ccc1N1CCCCC1)c1cccs1	-1	13	4	6	9	2	0	-4
Nc1sc(-c2ccccc2)cc1C(=O)N/N=C/c1ccc(Cl)cc1	-5	nt	nt	nt	9	-12	-20	-1
CCc1cc2c(NC(Cc3c[nH]c4ccccc34)C(=O)O)nc(C)nc2s1 (stereo unspecified)	0	23	11	5	0	3	1	-7
CC(NC(=O)C1CCN(S(=O)(=O)c2cccs2)CC1)c1cccc(Cl)c1 (stereo unspecified)	3	6	6	-5	4	4	1	nt
O=C(NNC(=O)c1cc(F)c(F)cc1Cl)c1ccc(NS(=O)(=O)c2cccs2)cc1	-4	4	11	5	1	0	-2	nt
N#Cc1ccc(/C=N/NC(=O)c2cc(-c3cccs3)nc3ccccc23)cc1	-33	-2	-9	-21	-20	-47	-30	-10

Screens: PubChem BioAssay, The Scripps Research Institute Molecular Screening Center
